# HSV replic up = increases HSV replication in cells | HSV replication augmentation in cells, fold increase | maximum fold increase | 0.005% of 220,000 active;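 active means peak rise of 1.5-fold or more in the series; inconclusive means self-fluorescent or not available for retest; tested in PC3 cells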;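 further: first round at 10 µM; read as green reporter fluorescence; hits show the peak of a series up to 25 µM; 1 = signal of infected wells without compound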
# GALR2 agonist = GALR2 (human) receptor agonism. AID 803. O43603. GALR2-expressing cells, agonist activation read-out. 0.48% of 140,000 active. activation, %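 (tested at 5 µM)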;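 active means above mean plus 3 SD of all compounds, about 5% in these data, not always enough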;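 further: 0% = vehicle buffer wells and 100% = reference agonist at full effect; tested in CHO reporter cells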
# Target sequence (O43603 whole entry, looked up): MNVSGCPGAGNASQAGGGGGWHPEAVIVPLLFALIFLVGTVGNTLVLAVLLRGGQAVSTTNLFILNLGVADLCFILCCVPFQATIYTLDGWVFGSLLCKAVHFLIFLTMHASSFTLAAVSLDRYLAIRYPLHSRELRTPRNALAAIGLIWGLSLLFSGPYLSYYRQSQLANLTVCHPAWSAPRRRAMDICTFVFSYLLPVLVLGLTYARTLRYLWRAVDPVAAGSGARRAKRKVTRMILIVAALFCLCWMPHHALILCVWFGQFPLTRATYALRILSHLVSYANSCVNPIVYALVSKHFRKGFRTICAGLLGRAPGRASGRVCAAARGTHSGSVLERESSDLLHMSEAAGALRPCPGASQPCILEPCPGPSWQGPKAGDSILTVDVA
# RGS16-Gao HTS = modulates binding between human RGS16 and Galphao | bead-based flow cytometry RGS16-Galphao binding, fluorescence; actives lie on both sides | 0.38% of 220,000 active | binding response (% of control), % at 10 µM | AID 1441;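 active means below 25% or above 175%, edge rows of some plates excepted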;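 further: Galphao activated by GDP with aluminum fluoride before binding; 100% = wells without compound and 0% = beads without RGS; some results beyond the cut were filed as inactive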
# Target sequence (O15492 whole entry, looked up): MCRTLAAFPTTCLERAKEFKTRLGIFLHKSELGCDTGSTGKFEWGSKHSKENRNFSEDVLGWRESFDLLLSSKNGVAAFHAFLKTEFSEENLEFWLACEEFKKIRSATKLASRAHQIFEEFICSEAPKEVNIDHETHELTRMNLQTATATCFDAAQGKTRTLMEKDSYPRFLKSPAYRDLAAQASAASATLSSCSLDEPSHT
# Target sequence (P09471 whole entry, looked up): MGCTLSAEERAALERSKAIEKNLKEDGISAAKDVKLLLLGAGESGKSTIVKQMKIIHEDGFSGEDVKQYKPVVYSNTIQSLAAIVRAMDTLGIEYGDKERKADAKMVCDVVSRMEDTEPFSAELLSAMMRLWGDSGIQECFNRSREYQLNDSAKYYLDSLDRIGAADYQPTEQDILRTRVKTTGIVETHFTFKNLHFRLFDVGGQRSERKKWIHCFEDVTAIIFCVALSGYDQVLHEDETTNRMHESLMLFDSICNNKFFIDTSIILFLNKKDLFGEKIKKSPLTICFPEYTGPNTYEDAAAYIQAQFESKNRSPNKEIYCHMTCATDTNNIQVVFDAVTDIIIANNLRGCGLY
# Insulin prom inh = TRM-6 insulin promoter activity inhibition; TRM-6 cells (human fetal islet line), insulin promoter-eGFP reporter, imaging; reporter expression induced with tamoxifen; inhibition, % at 2 µM; 0.9% of 130,000 active; AID 1273;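 active means inhibition above the mean plus 3 SD, with well images judged a real hit on visual review, cut at about 60% in these data, passing the limit was not always enough; inconclusive means inhibition over the cutoff but images rejected on review; inactive means inhibition not above the cutoff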
# PKD1 kinase inh = inhibitors of human PKD1 kinase | PKD1 kinase fluorescence polarization assay | inhibition, %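 (about 10 µM by stock and volumes)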 | 0.056% of 200,000 active;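 active means inhibition of 50% or more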;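 further: controls were vehicle for no effect and a reference inhibitor for full effect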
# Insulin prom inh cell count = further read-out of Insulin prom inh, marked with its call; normalized cell count, %; measured here: cell count, toxicity; reference of the scale not given here;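 cells exposed to compound for 48 h; stained nuclei by imaging scaled within each plate; lower means fewer cells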
# HSV replic up primary fold = also measured in HSV replic up; calls as there; fold increase; compound at 10 µM; measured here: primary screen fold increase 10 uM; tested in PC3 cells;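 GFP signal in the first replicate; 1 = infected wells without compound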
# * marks the source's active call; other numbers are inactive results; i = inactive; ? = inconclusive; nt = not tested or not shown; [ ] = dose if it differs, or a comment.
SMILES,HSV replic up,HSV replic up primary fold,GALR2 agonist,RGS16-Gao HTS,Insulin prom inh,Insulin prom inh cell count,PKD1 kinase inh
CCOC(=O)CNc1nc(Cl)nc(Nc2ccccc2)n1,i,0.89,nt,104,nt,nt,-1
Cc1cc(C)c2[nH]c(O)c(N=NC(=S)NCC3CCCO3)c2c1 (centres undefined),i,0.87,-1.1,84,-71,34,-6
Cc1cc(NC(=O)c2ccc(C#N)cc2)on1,i,0.92,nt,105,nt,nt,1
Cc1ccc(S(=O)(=O)N(C)CCCC(=O)n2nc(C)cc2C)cc1,i,0.89,-1.6,99,25,161,2
Cc1ccc(-n2ncc3c(SCc4cccnc4)ncnc32)c(C)c1,i,0.9,nt,133,50,153,-1
C=CCNC(=S)NNC(=O)c1ccc(OCCCC)cc1,i,0.97,-1.9,103,-53,62,-5
CCn1c(CNC(=O)c2ccc3c(c2)OCO3)nnc1SCC(=O)Nc1cc(C)ccc1OC,i,0.93,0.1,101,-46,142,1
COC(=O)c1cc(NC(=O)CN(c2ccccc2OC)S(=O)(=O)c2ccccc2)ccc1Cl,i,0.84,-1.2,104,17,81,-11
Cn1nc([N+](=O)[O-])nc1N1CCOCC1,i,0.9,-1.9,102,25,147,-6
CCOCCn1c(=NC(=O)c2cc3ccccc3oc2=O)sc2cc(S(N)(=O)=O)ccc21,i,1.1,-1.7,81,-20,131,1
COc1ccc(O)c(C(=O)CC(=O)c2ccccc2C)c1,i,1,nt,125,nt,nt,8
OC1(c2ccc(Cl)c(Cl)c2)C[n+]2ccccc2N1Cc1ccccc1 (centres undefined),i,0.73,nt,103,nt,nt,nt
CC(=O)Nc1ccc(S(=O)(=O)NC(C(=O)O)C2=CCC=CC2)cc1 (centres undefined),i,0.82,-0.5,103,nt,nt,5
CC[C@H](C)[C@H](NC(=O)OCc1ccccc1)C(=O)Nc1ccc(NC(C)=O)cc1,i,0.9,nt,98,nt,nt,-3
COC(=O)CN(c1ccc(OCc2ccccc2)cc1)S(C)(=O)=O,i,0.99,nt,96,-7,139,5
O=C(C1CC(c2ccc(F)cc2)=NO1)N1CCCCC1 (centres undefined),i,0.87,-1.5,99,-12,122,-1
CCOC(=O)COc1ccc(S(=O)(=O)N2CCN(c3ccc(F)cc3)CC2)cc1,i,0.87,-1.8,125,nt,nt,2
O=C(O)c1cccc(Cn2c(Cl)c(/C=N/NC(=O)c3cc4ccccc4cc3O)sc2=O)c1,?,nt,nt,104,nt,nt,nt
CC1=NN(c2ccccc2)C(=O)C1/C=C1\NC(=S)NC1=O (centres undefined),i,0.97,nt,101,21,133,-8
CCOc1ccc(C(=O)NCc2ccccc2)cc1Br,i,1.1,-0.2,90,-65,71,-2
C=CCN(c1ccccc1)S(=O)(=O)c1cc(C(=O)NC2=NCCS2)ccc1Cl,i,1,nt,98,-18,65,-4
COc1ccc(N(C(C)C(=O)NC2CCCCCC2)S(C)(=O)=O)cc1 (centres undefined),i,1,0.0,148,11,61,-4
CCC(C(=O)OCC(=O)Nc1cc(Cl)cc(Cl)c1)c1ccccc1 (centres undefined),i,1.1,1.1,107,-23,176,8
Clc1ccc(-c2n[nH]c3c2Cc2ccccc2-3)cc1Cl,i,1,nt,97,nt,nt,nt
Cc1nc2ccccc2c(=O)n1/N=C/c1c(O)ccc2oc3c(c12)CCCC3,nt,nt,-1.6,101,0,137,-7
CCN(CCNC(=O)C1CCN(Cc2nc(-c3ccc(Cl)cc3)oc2C)CC1)c1ccccc1,i,0.9,0.2,106,nt,nt,1
COC(=O)c1cnc(N2CCCN(S(=O)(=O)c3ccc(C(F)(F)F)cc3)CC2)nc1C(F)(F)F,i,1.2,nt,99,nt,nt,nt
CCCCS(=O)(=O)/C=C\C1C2C=CC(C2)C1S(=O)(=O)CCCC (centres undefined),i,1,-1.3,101,nt,nt,-13
CCCC(=O)Nc1cccc(NC(=O)c2cccc([N+](=O)[O-])c2C)c1,i,1.1,0.1,205*[activator],13,120,-11
Cc1onc(-c2c(F)cccc2Cl)c1C(=O)Nc1c(C)n(C)n(-c2ccccc2)c1=O,i,0.78,-3.1,131,nt,nt,-7
Cn1ncc(N=Cc2c(O)ccc3ccccc23)c1C(=O)Nc1cccc(Cl)c1,i,1.2,nt,101,nt,nt,3
COc1ccc(CCN(Cc2cc3cc(C)ccc3[nH]c2=O)C(C)=O)cc1OC,i,0.93,nt,106,nt,nt,5
Cc1ccc(-c2cn3cc([N+](=O)[O-])ccc3n2)cc1,i,0.87,-1.2,103,31,116,-7
CC1(C)NC(=O)N(CCOc2cccc(Oc3ccccc3)c2)C1=O,i,0.96,0.0,100,nt,nt,0
CC1(C(=O)OCC(=O)Nc2ccc3ccccc3c2)CC1(Cl)Cl (centres undefined),i,0.99,nt,103,nt,nt,-3
N=C1/C(=C\c2ccc(SCc3ccco3)o2)C(=O)N=C2SC=NN12,?,nt,-0.8,100,0,89,-13
O=C(O)CNC(=S)N(Cc1ccccc1)Cc1ccccc1F,i,0.93,nt,102,-29,131,1
COc1ccc(NC(=O)CSc2nc3ccccc3c(=O)n2-c2ccc3c(c2)OCO3)c(OC)c1,i,0.85,-1.4,97,nt,nt,-8
Cc1nn(-c2ccccc2)c(Cl)c1/C=N/Nc1ccc(Cl)c(C(=O)O)c1,i,1,-0.9,107,18,124,-5
Cn1ncc(C#N)c1/N=C/N1CCCCCC1,i,0.85,-3.2,97,-26,103,-2

# Rewritten bar-delimited: two of the compounds above
structure | HSV replic up | HSV replic up primary fold | GALR2 agonist | RGS16-Gao HTS | Insulin prom inh | Insulin prom inh cell count | PKD1 kinase inh
COc1ccc(CCN(Cc2cc3cc(C)ccc3[nH]c2=O)C(C)=O)cc1OC | i | 0.93 | nt | 106 | nt | nt | 5
Cc1ccc(-c2cn3cc([N+](=O)[O-])ccc3n2)cc1 | i | 0.87 | -1.2 | 103 | 31 | 116 | -7

# The list continues:
SMILES,HSV replic up,HSV replic up primary fold,GALR2 agonist,RGS16-Gao HTS,Insulin prom inh,Insulin prom inh cell count,PKD1 kinase inh
Cc1csc(NC(=O)Cc2coc3cc(C)c(C(C)C)cc23)n1,i,0.89,0.3,98,6,91,-1
Fc1ccc(-c2cc(-c3nnc4n3CCCCC4)c3ccccc3n2)cc1,i,0.95,-0.8,98,-86,100,-1
O=c1c2ccccc2ncn1-c1ccc(Cl)cc1[N+](=O)[O-],i,0.79,nt,107,nt,nt,-6
O=c1[nH]c(C2CCCN(S(=O)(=O)c3ccccc3)C2)nc2c1nnn2Cc1ccccc1 (centres undefined),i,0.79,-0.7,101,nt,nt,5
CN(C)Cc1cc2ccccc2c2c1COC2,i,1.2,nt,85,nt,nt,nt
CN(Cc1ccccc1)S(=O)(=O)c1ccc(NS(C)(=O)=O)cc1,i,1,-2.7,101,-9,74,0
CCc1ccc(-c2cn(-c3nc(C)cc(C)n3)c(=N)o2)cc1,i,0.73,-3.2,100,34,87,-11
COc1ccc(C(=O)NCc2ccncc2)cc1OC,i,0.91,nt,115,nt,nt,-4
CN(C)S(=O)(=O)c1ccc(NC(=O)CN2CCC(Cc3ccccc3)CC2)cc1,i,0.81,nt,105,14,107,-8
CC(C)N(CC#CC(O)(c1ccccc1)c1ccccc1)C(C)C,i,1,nt,92,nt,nt,nt
COCCCn1c(SCc2cccc(C(F)(F)F)c2)nc2cc(OC)c(OC)cc2c1=N,i,0.84,-1.4,97,7,102,-4
CCOC(=O)c1sc2nc(N3CCOCC3)c3c(c2c1N)CC(C(C)C)OC3 (centres undefined),i,1.1,nt,97,nt,nt,-8
COc1ccc(Cn2c(CCC(=O)O)nc3cccnc32)cc1,i,1.1,-0.8,101,-29,96,-9
COc1ccccc1C(=O)N1CC2(C)CC1CC(C)(C)C2 (centres undefined),i,1.1,-2.1,100,-39,124,-6
CCc1ccc(NC(=O)C(=O)NCc2ccccn2)cc1,i,1,nt,105,nt,nt,-11
NC(=O)C(Cc1ccccc1)N1C(=O)c2ccccc2C1=O (centres undefined),i,1.1,nt,96,nt,nt,-2
COC(=O)N/N=C(\C)c1ccco1,i,0.86,nt,109,45,138,-2
O=C(Nc1ccccc1)OC1CCCCc2cccnc21 (centres undefined),i,1.1,nt,98,nt,nt,nt
Cc1ccc(CN2CCN(Cc3ccc4ncccc4c3)CC2CCO)cc1 (centres undefined),i,0.87,nt,107,52,144,0
Cc1c(NC(=O)CSc2ccc(Cl)cc2)cccc1-c1nc2ncccc2o1,i,0.9,-1.4,104,nt,nt,9
CNc1nc(C)c(C#N)c(-c2ccccc2)c1C(C)=O,i,1.1,-1.8,99,nt,nt,10
CC(=O)c1sc(NC(=O)c2ccc(Cl)cc2)nc1C,i,0.97,nt,100,nt,nt,nt
Cc1cc(C(F)F)nn1CC(=O)NC1C(=O)N2C(C(=O)O)=C(CSc3nnnn3C)CSC12 (centres undefined),i,1,nt,101,35,90,-6
COc1ccc(/C=C/C(=O)Nc2cc(S(=O)(=O)N3CCCCC3)ccc2N2CCCCC2)cc1OC,i,0.93,-0.2,102,-3,69,1
COc1ccc(-n2c(C)cc(C(=O)CN3C(=O)NC4(CCc5ccccc54)C3=O)c2C)cc1 (centres undefined),i,1,-0.5,16,-4,64,-16
O=[N+]([O-])c1cc(C(F)(F)F)ccc1NCCc1c[nH]c2ccccc12,i,1,-1.6,120,nt,nt,-3
CN(C)c1nc(C(=O)OCCO)nc(N(C)C)n1,i,1.2,-1.3,100,-100,139,1
O=C1C(Oc2ccccc2)C(c2cccs2)N1Cc1ccc2c(c1)OCO2 (centres undefined),i,0.91,-2.9,100,nt,nt,-4
O=S(=O)(Nc1ccc(C(F)(F)F)cc1)c1cnc[nH]1,i,1.1,-1.1,98,nt,nt,-3
CCOc1ccc(S(=O)(=O)N(C)c2ccc(OCC(=O)NCC3CCCO3)cc2)cc1 (centres undefined),i,1.1,nt,92,-27,96,-4
O=c1[nH]c(SCc2nc3ccccc3c(=O)n2-c2ccccc2C(F)(F)F)nc2ccccc12,i,0.97,0.9,99,nt,nt,0
COc1ccc(-c2noc(CSc3nnc(CCc4ccccc4)n3-c3ccccc3)n2)cc1OC,i,0.94,-1.3,104,-68,125,-2
COc1ccc(-c2nnc3ccc(SCC(=O)Nc4nccs4)nn23)cc1OC,i,0.86,-1.2,99,26,143,4
O=C(NCc1cccs1)c1cc(-c2ccccc2)nc2ccccc12,i,0.88,-1.1,99,0,117,-6
COc1ccc(C(=O)N2CCCC(c3nc(-c4ccc(OC)c(OC)c4)no3)C2)c(OC)c1 (centres undefined),i,1.1,1.4,102,14,79,-8
COc1ccc(C(CC(=O)Nc2ccc(C)cc2)NC(=O)C(F)(F)F)cc1 (centres undefined),i,1.1,-0.1,98,7,84,-2
Cc1ccc2ccc(S(=O)(=O)n3nc(C)cc3C)cc2c1,i,0.84,-0.9,109,nt,nt,3
CCCC(=O)N1CCN(c2ccc(NC(=O)c3ccccc3)cc2)CC1,i,0.94,-0.1,108,nt,nt,-8
CCN(CC)CCCN(Cc1cc2cc3c(cc2[nH]c1=O)OCO3)C(=S)Nc1ccccc1,i,0.87,nt,104,nt,nt,-11
CCOC(=O)c1c(C)c(C#N)c2c3ccccc3ccn12,i,0.95,0.8,105,-7,90,-6
Cn1c(=O)oc2cc(S(=O)(=O)N3CCC(C(=O)N4CCc5ccccc5C4)CC3)ccc21,nt,nt,-1.0,68,nt,nt,-4
Cc1nnc(Sc2c(-c3ccccc3)c3ccc(Cl)cc3[nH]c2=O)s1,i,0.99,-1.0,100,47,91,-11
Cc1c([N+](=O)[O-])cc(C(=O)Oc2cccc(C(=S)N3CCOCC3)c2)cc1[N+](=O)[O-],i,0.92,nt,98,16,157,-6
O=S(=O)(Cc1ccccc1)N1CCC(N2CCN(c3ccccc3)CC2)CC1,i,0.97,-1.3,116,nt,nt,2
CCOC(=O)CN1N=C(c2ccc(Cl)s2)CSC1=O,i,0.79,-1.7,100,58,151,-9
O=C(NCCCN1CCOCC1)c1cc(-c2ccc(O)cc2)on1,i,0.82,1.3,100,nt,nt,9
COC(=O)c1ccccc1SC1CC(=O)N(c2ccccc2)C1=O (centres undefined),i,0.99,-0.3,100,-7,80,-3
CCCn1c(SCC(=O)Nc2ccc(Cl)cc2)n[nH]c1=O,i,0.91,nt,109,8,113,-6

# Arranged by value in GALR2 agonist (highest first): four of the compounds above.
Molecule | GALR2 agonist
COC(=O)c1ccccc1SC1CC(=O)N(c2ccccc2)C1=O (centres undefined) | -0.3
Cc1nnc(Sc2c(-c3ccccc3)c3ccc(Cl)cc3[nH]c2=O)s1 | -1.0
O=S(=O)(Cc1ccccc1)N1CCC(N2CCN(c3ccccc3)CC2)CC1 | -1.3
CCOC(=O)CN1N=C(c2ccc(Cl)s2)CSC1=O | -1.7

# Source: PubChem (several laboratories)
